# RGS16-Gao = modulates binding between human RGS16 and Galphao. O15492+P09471. bead-based flow cytometry RGS16-Galphao binding, fluorescence; actives lie on both sides. binding response (% of control), % at 10 µM. 0.38% of 220,000 active. AID 1441;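 active = below 25% or above 175%, edge rows of some plates excepted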;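 note: Galphao activated by GDP with aluminum fluoride before binding; 100% = wells without compound and 0% = beads without RGS; some results beyond the cut were filed as inactive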
# GALR2 ag = agonists of human galanin receptor 2 (GALR2); activation, %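 (tested at 5 µM)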; 0.48% of 140,000 active; O43603; GALR2-expressing cells, agonist activation read-out;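 active = above mean plus 3 SD of all compounds, about 5% in these data, not always enough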;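 note: 0% = vehicle buffer wells and 100% = reference agonist at full effect; tested in CHO reporter cells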
# Target sequence (O43603 whole entry, looked up): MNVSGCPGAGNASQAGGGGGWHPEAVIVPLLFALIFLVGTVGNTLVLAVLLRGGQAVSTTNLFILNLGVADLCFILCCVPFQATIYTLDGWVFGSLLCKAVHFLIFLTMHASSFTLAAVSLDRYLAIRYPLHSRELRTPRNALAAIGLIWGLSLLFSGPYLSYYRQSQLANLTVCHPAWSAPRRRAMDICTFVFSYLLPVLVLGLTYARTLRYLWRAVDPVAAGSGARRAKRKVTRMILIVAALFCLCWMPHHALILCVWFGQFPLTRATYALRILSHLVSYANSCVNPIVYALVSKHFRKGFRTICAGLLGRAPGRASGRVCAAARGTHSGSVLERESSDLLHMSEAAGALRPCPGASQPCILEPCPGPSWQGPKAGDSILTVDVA
# INS promoter inh = TRM-6 insulin promoter activity inhibition. TRM-6 cells (human fetal islet line), insulin promoter-eGFP reporter, imaging; reporter expression induced with tamoxifen. inhibition, % at 2 µM. 0.9% of 130,000 active. AID 1273;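 active = inhibition above the mean plus 3 SD, with well images judged a real hit on visual review, cut at about 60% in these data, passing the limit was not always enough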
# PKD1 kinase inh = inhibitors of human PKD1 kinase. Q15139. PKD1 kinase fluorescence polarization assay. inhibition, %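 (about 10 µM by stock and volumes)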. 0.056% of 200,000 active. AID 797;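 active = inhibition of 50% or more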;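 note: controls were vehicle for no effect and a reference inhibitor for full effect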
# HSV replic up = increases HSV replication in cells | HSV replication augmentation in cells, fold increase | maximum fold increase | 0.005% of 220,000 active;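 active = peak rise of 1.5-fold or more in the series; tested in PC3 cells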;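 note: first round at 10 µM; read as green reporter fluorescence; hits show the peak of a series up to 25 µM; 1 = signal of infected wells without compound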
# INS promoter inh cell count = also measured in INS promoter inh; calls as there; normalized cell count, %; measured here: cell count, toxicity; reference of the scale not given here;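 cells exposed to compound for 48 h; stained nuclei by imaging scaled within each plate; lower means fewer cells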
# HSV replic up primary fold = recorded beside HSV replic up, whose call it bears; fold increase; compound at 10 µM; measured here: primary screen fold increase 10 uM; tested in PC3 cells;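 GFP signal in the first replicate; 1 = infected wells without compound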
# * marks the source's active call; other numbers are inactive results; i = inactive; x = not tested or not shown; [ ] = dose if it differs, or a comment.
SMILES,RGS16-Gao,GALR2 ag,INS promoter inh,INS promoter inh cell count,PKD1 kinase inh,HSV replic up,HSV replic up primary fold
COc1ccccc1NC(=O)CCC(=O)N(Cc1ccc(OC)c(OC)c1)c1nccs1,105,x,x,x,6,i,0.93
NC12CC3CC(C1)CC(CC(=O)O)(C3)C2,98,x,x,x,-8,i,0.85
O=C(CC1Oc2ccccc2NC1=O)NCCCN1CCN(C2CCCCC2)CC1 (stereo unspecified),x,-2.6,x,x,3,i,0.75
O=C(O)COc1ccc(NC(=O)c2cccs2)cc1,100,-0.4,17,98,-7,i,0.78
Cc1ccc(C2CC2C(=O)NNC(=S)Nc2ccc(Cl)cc2)cc1 (stereo unspecified),103,-2.1,i,34,2,i,1
CCCn1c(SCC(=O)c2ccc3c(c2)OCCO3)nnc1C(C)C,89,-1.3,x,x,-1,i,0.89
CN(C(=O)CCc1nc(-c2ccccc2F)no1)c1ccccc1,108,x,x,x,-3,i,1.1
CC(=O)N1CCc2cc(S(=O)(=O)CCC(=O)Nc3cccc(F)c3)ccc21,93,-1.5,-67,109,-9,i,1
CCOC(=O)CC(NC(=O)c1ccco1)c1ccccc1Cl (stereo unspecified),125,-0.2,-79,88,-1,i,1
COc1cc(NC(=S)N2CCCC(C)C2)cc(OC)c1OC (stereo unspecified),95,x,x,x,-2,i,0.97
CCOC(=O)c1cnc(C(C)(C)C)[nH]c1=O,99,-0.2,73,111,-8,i,0.89
Cc1csc2ncnc(N3CCN(C(=S)Nc4ccc(C(F)(F)F)cc4)CC3)c12,105,x,x,x,x,i,1
CC1(C)CC(=O)C=C(N2CCNCC2)C1,93,0.3,x,x,1,i,0.91
COC(=O)c1ccccc1NC(=O)CSc1nnc(-c2cccc(NC(C)=O)c2)n1C,101,-1.8,15,83,3,i,1.1
Cc1c(C(N)=O)c(-c2ccccc2)nn1-c1ccccc1,105,-1.1,47,88,-11,i,1
CCCCSCCCNC(=O)Nc1cccc(OC)c1,101,-0.7,29,84,8,i,0.79
c1ccc(-c2nnc(SCc3nc4ccccc4[nH]3)o2)cc1,102,-1.7,27,137,-5,i,0.83
CCNc1cc(Nc2c(C)n(C)n(-c3ccccc3)c2=O)c([N+](=O)[O-])c2nonc12,103,x,x,x,x,i,1.2
Cc1nn(-c2ccccc2)c(C)c1-c1nnc(-c2c(C)nn(-c3ccccc3)c2C)o1,96,x,x,x,x,i,0.88
Cc1ccc2nc(Cl)c(CN(Cc3cccs3)C(=O)C3CC3)cc2c1,101,-1.4,22,71,3,i,0.98
N#Cc1c2n(c3c(=O)[nH]cnc13)CCCC2,102,-1.7,-6,80,-6,i,0.95
CCOC(=O)C1CCCN(C(=O)c2cnn3c(C(F)F)cc(-c4ccc(C)cc4)nc23)C1 (stereo unspecified),101,-0.1,x,x,-2,i,0.63
CC1=C(C(=O)Nc2ccccn2)C(c2ccc(Br)cc2)n2ncnc2N1 (stereo unspecified),108,-1.1,x,x,-5,i,0.89
O=C(O)c1ccc2nc(C(F)(F)F)[nH]c2c1,100,-0.3,38,100,-20,i,0.96
Cn1nnnc1SCC(=O)Nc1ccccc1-c1ccccc1,319,-3.6,-11,182,-5,i,1
Cc1c(Cl)cccc1NC(=O)CNc1cccc(C(F)(F)F)c1,93,-0.9,x,x,-4,i,0.97
N#C/C(=C/c1ccc2c(c1)OCO2)C(=O)Nc1ccc(O)cc1,103,x,x,x,-3,i,0.94
CCOc1cc(C#N)c(NC(=O)c2ccnn2C)cc1OCC,101,-0.8,x,x,-5,i,1.1
CCc1cc2cc(OC)ccc2nc1SCC(=O)Nc1cc(OC)c(OC)cc1C(=O)O,105,x,x,x,-2,i,0.97
COc1ccc(S(=O)(=O)N2CCCC(C(=O)NCc3ccccn3)C2)cc1Cl (stereo unspecified),86,-1.2,15,146,-2,i,1.1
C/C(=N\NC(=O)C1CC1(C)c1ccccc1)c1ccco1 (stereo unspecified),110,-1.3,x,x,3,i,1.1
CC(=O)Nc1ccc2nc(NC(=O)COc3ccccc3)sc2c1,100,x,-50,112,2,i,0.95
CCCCCCCNC(=O)CC(NS(=O)(=O)c1ccc(NC(C)=O)cc1)C(C)C (stereo unspecified),109,-1.1,-50,96,-2,i,1
CC(C)c1nc2ccc(Br)cn2c1NC1CCCC1,102,x,x,x,5,i,1
CC1CCN(CCC(=O)Nc2nccs2)CC1,95,x,x,x,x,i,1
CC1(C)CC2(CCO1)OC(=O)CC2C(=O)Nc1cccc2ccccc12 (stereo unspecified),103,-4.7,x,x,-1,i,0.97
O=C1CCCN2N=C(SCC(=O)N3CCCCC3)SC2=N1,96,x,x,x,x,i,0.71
Cc1ccc(C)c(OCCCC(=O)Nc2ccccc2C(N)=O)c1,97,x,29,101,-6,i,1.1
C/C=C(/C)C(=O)O[C@@H]1c2c(ccc3ccc(=O)oc23)O[C@@H]1C(C)(C)OC(C)=O,104,-1.1,33,107,-4,i,1
Cc1cc(SCC(=O)N(C)C2CCS(=O)(=O)C2)nc2c(C)cccc12 (stereo unspecified),102,x,5,64,3,i,0.91
CC(=O)Nc1ccc(NC(=S)NC(=O)c2cc3ccccc3o2)cc1,111,2.9,-11,140,-7,i,0.88
O=C(Nc1ccc(Oc2cccc(C(F)(F)F)c2)nc1)c1ccccc1,134,x,x,x,x,i,1.1
COC(=O)C1=C(C)N(Cc2ccccc2)C(=O)/C1=C\c1ccco1,100,x,x,x,x,i,1.2
C/C(CC(=O)Nc1ccccc1Br)=N\NC(=O)C(=O)N1CCCC1,104,-2.3,7,92,3,i,1
Cc1nc2ccc(S(=O)(=O)NCC(=O)N3CCC(C)CC3)cc2s1,101,-0.8,27,117,0,i,0.96
O=C(Nc1nc2c(s1)CCc1ccccc1-2)c1ccco1,109,0.4,0,123,-8,i,0.87
Cc1onc(-c2c(Cl)cccc2Cl)c1C(=O)NC(=S)N1CCOCC1,115,x,x,x,x,i,1.1
CCC(C(=O)OCCN(CC)CC)c1ccccc1 (stereo unspecified),102,0.8,33,129,-2,i,0.81
O=C(COC(=O)/C=C/c1ccco1)Nc1ccccc1,103,x,x,x,-3,i,1.1
CS(=O)(=O)N(CC(=O)NCc1ccc2c(c1)OCO2)c1ccccc1,90,-0.9,x,x,-3,i,0.93
Cc1cc(C(=O)CN2C(=O)C(=O)N(C3CCCC3)C2=O)c(C)n1-c1ccc(F)cc1,104,x,2,233,1,i,1
OC(COCC1COc2ccccc2O1)CN1CCCCC1 (stereo unspecified),102,-0.5,x,x,-3,i,1.1
Cc1cccc(CN2CCN(CC(=O)O)C2=O)c1,102,-2.5,x,x,-15,i,1.2
S=c1[nH]nc(-c2ccncc2)n1/N=C/C=C/c1ccccc1,102,x,x,x,x,i,1.1
Cc1ccc(C2(c3ccc(C)cc3)CC2C(=O)NCc2cccnc2)cc1 (stereo unspecified),104,x,x,x,-3,i,0.97
O=C(N/N=C1\CCCc2ccccc21)c1ccc([N+](=O)[O-])cc1Cl,98,-1.1,11,39,3,i,0.73
CS(=O)(=O)NCCNc1ccc(Cl)cc1[N+](=O)[O-],110,x,-14,85,1,x,x
O=c1c(Br)c(N2CCCCC2)cnn1-c1ccccc1,102,x,x,x,-4,i,0.94
COC(CC(=O)NNC(=S)Nc1ccc(Cl)cc1)OC,109,x,-64,175,1,i,0.89
COC(=O)C1(C(=O)OC)NOC2C(=O)N(N(C)c3ncc(C(F)(F)F)cc3Cl)C(=O)C21 (stereo unspecified),110,x,45,152,-7,i,1.1
# (more compounds)
SMILES,RGS16-Gao,GALR2 ag,INS promoter inh,INS promoter inh cell count,PKD1 kinase inh,HSV replic up,HSV replic up primary fold
CN(C)c1ccc(C2CC(=O)NC3=C2C(=O)CC(C)(C)C3)cc1 (stereo unspecified),104,0.1,x,x,3,i,1
O=C(c1ccc(N2CCN(CCO)CC2)nc1)N1CCOCC1,106,-0.8,27,60,-16,i,0.99
CCCCN(CCCC)C(=O)c1cc(Cl)ccc1[N+](=O)[O-],104,-0.5,-7,118,-9,i,1.1
Cn1c(=O)c([N+](=O)[O-])c(NCc2ccc3c(c2)OCO3)c2ccccc21,99,x,x,x,x,i,0.79
NC(=O)CN1C(=O)C(O)(CC(=O)/C=C\c2ccc3c(c2)OCO3)c2ccccc21 (stereo unspecified),103,x,-88,127,1,i,0.84
COc1ccc(C(=N/O)/C(=N/O)c2ccc(OC)cc2)cc1,88,-0.3,20,73,-11,i,0.95
COc1cccc(CNC(=O)C2CCCN(S(C)(=O)=O)C2)c1 (stereo unspecified),106,-1.0,-44,118,-13,i,1.1
COc1cccc(C(c2sc3ncnn3c2O)N2CCc3ccccc3C2)c1 (stereo unspecified),108,-1.0,x,x,-6,i,0.75
O=Cc1cc([N+](=O)[O-])ccc1N1CCOCC1,101,0.0,8,81,-2,x,x
O=C(CCCNS(=O)(=O)c1cccs1)N1CCc2ccccc2C1,107,-0.8,x,x,-4,i,1
O=C(OCc1cccc(F)c1)c1ccc2c(=O)n3c(nc2c1)CCC3,107,x,x,x,x,i,0.91
Nc1nc(C(=O)N2CCOCC2)nn1S(=O)(=O)c1ccc(Cl)cc1,104,-3.2,-390,108,14,i,0.89
CC(C)C(=O)Nc1ncc2c(n1)CC(c1cccs1)CC2=O (stereo unspecified),112,-1.4,-17,115,1,i,1
O=C(NNC(=O)c1ccccc1-c1ccccc1C(=O)O)c1cccc([N+](=O)[O-])c1,109,0.4,10,102,-12,i,1
CCSc1nnc(-c2cccs2)o1,101,-0.1,4,135,0,i,1.1
COc1ccc(C2(CNC(=O)c3ccc(Br)o3)CCOCC2)cc1,111,-2.7,-17,99,-10,i,1
OC(COCc1cccs1)CN1CCN(c2cccc(C(F)(F)F)c2)CC1 (stereo unspecified),132,-0.2,x,x,-9,i,1.2
O=c1c2ccccc2c(-c2ccccc2)nn1Cc1c(Cl)cccc1Cl,104,-2.9,-8,86,-9,i,1.1
CCOC(=O)c1ccc(-n2c(O)c(/C=N/NC(=O)C3COc4ccccc4O3)c3ccccc3c2=O)cc1 (stereo unspecified),123,0.9,x,x,2,i,1
C/C=C/C(=O)Nc1cccc(C2=NOC3(C2)C[C@@H](C(N)=O)N(C(=O)C(c2ccccc2)c2ccccc2)C3)c1 (stereo partly specified),104,x,x,x,x,i,0.82
CCN(CC)S(=O)(=O)c1cccc(-c2nnc(SCCOc3ccccc3C)o2)c1,211*[activator],-0.7,x,x,-9,i,0.99
